Mtb bLac sens: beta-lactam sensitization of Mtb H37Rv, H37Rv. M. tuberculosis H37Rv growth with meropenem, percent inhibition; hits of this screen are not shown here. inhibition, % at 25 µM. 0.27% of 330,000 active. AID 434955, 2010;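 active = about 74% or more and at least 40 points above the plate without the antibiotic, then above 30% in a dose series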;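 note: growth measured after seven days incubation then overnight dye step; 0% = bacteria only wells and 100% = bacteria with antibiotic; twin plates without the antibiotic show which effects depend on it; some results filed as inactive read as strong as hits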
RecA splice inh: Mtb RecA intein splicing inhibitors, primary screen, biochemical, fluorescence, HTS; Protein RecA (Mycobacterium tuberculosis (strain ATCC 25618 / H37Rv)), P9WHJ3; inhibition, %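 (about 9 µM by stock and volumes)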; 0.75% of 290,000 active; cell-free RecA intein splicing; in the data active = inhibition above about 30%;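 note: 0% = vehicle wells and 100% = reference inhibitor control wells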
Target sequence (P9WHJ3 whole entry, looked up, canonical isoform): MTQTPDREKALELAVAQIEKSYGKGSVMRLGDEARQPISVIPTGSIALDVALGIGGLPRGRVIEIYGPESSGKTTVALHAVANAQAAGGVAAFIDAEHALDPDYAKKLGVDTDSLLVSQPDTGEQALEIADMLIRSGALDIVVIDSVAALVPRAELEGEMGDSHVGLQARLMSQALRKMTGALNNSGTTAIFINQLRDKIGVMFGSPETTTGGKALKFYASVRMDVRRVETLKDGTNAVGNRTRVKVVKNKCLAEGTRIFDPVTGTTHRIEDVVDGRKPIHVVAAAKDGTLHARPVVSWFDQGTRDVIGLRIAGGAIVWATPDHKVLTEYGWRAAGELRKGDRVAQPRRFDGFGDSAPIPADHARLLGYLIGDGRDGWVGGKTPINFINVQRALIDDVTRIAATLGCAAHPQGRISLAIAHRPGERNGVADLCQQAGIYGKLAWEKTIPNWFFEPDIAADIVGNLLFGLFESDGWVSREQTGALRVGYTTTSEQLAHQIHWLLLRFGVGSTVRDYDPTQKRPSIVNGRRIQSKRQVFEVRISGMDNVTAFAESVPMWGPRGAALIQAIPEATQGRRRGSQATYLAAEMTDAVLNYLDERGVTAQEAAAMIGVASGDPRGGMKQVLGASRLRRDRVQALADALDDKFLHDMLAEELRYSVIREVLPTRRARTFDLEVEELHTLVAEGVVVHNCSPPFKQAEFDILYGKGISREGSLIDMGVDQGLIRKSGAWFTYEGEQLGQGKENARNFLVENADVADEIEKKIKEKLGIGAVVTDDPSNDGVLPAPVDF
Numbers without * were called inactive; / = no result given. Some of the compounds tested. The share of hits here may be higher or lower than overall.

SMILES | Mtb bLac sens | RecA splice inh
CCC(C(=O)Nc1ccccc1N1CCCC1)c1ccccc1 (stereo not given) | / | 3.6
COc1cc(N)c(Cl)cc1C(=O)N[C@H]1CCN(CCCOc2ccc(F)cc2)C[C@H]1OC | 9.7 | /
Cn1ccc2cc3c(cc21)CCN3C(=O)Nc1cccnc1 | 1.1 | /
CCc1ccccc1OC[C@@H](O)CN[C@H]1CCCc2ccccc21 | 36.9 | /
CC(C)(C)NCC(O)COc1cccc2c1CC(O)C(O)C2 (stereo not given) | -7.2 | /
C[C@@H]1C[C@H]2[C@@H]3CCC4=CC(=O)C=C[C@]4(C)[C@@]3(Cl)[C@@H](O)C[C@]2(C)[C@@]1(OC(=O)c1ccco1)C(=O)CCl | -2.0 | /
O=C(Nc1cc(-c2ccccc2)nn1-c1ccccc1F)c1ccc([N+](=O)[O-])cc1 | 4.8 | /
CN(C)C/C=C(\c1ccc(Br)cc1)c1cccnc1 | -4.7 | /
CC1O[C@@H](OCC2O[C@@H](Oc3cc(O)c4c(c3)OC(c3ccc(O)cc3)CC4=O)[C@H](O)[C@@H](O)[C@@H]2O)[C@H](O)[C@H](O)[C@H]1O (stereo not given in full) | -1.6 | /
CC(=O)OCC(=O)[C@@]1(O)CC[C@H]2[C@@H]3CCC4=CC(=O)C=C[C@]4(C)[C@@]3(F)[C@@H](O)C[C@@]21C | 9.0 | /
CC[C@]12CCCN3CCc4c(n(c5ccccc45)[C@](O)(C(=O)OC)C1)[C@@H]32 | -8.2 | /
O=C1c2c(O)ccc(O)c2C(=O)c2c(NCCNCCO)ccc(NCCNCCO)c21 | 24.7 | /
CCc1cccc(CC)c1NC(=O)CN(CC(=O)O)CC(=O)O | -4.3 | /

A different layout for two compounds above.
Each structure is followed by: Mtb bLac sens	RecA splice inh
- CCc1ccccc1OC[C@@H](O)CN[C@H]1CCCc2ccccc21
  36.9	/
- O=C(Nc1cc(-c2ccccc2)nn1-c1ccccc1F)c1ccc([N+](=O)[O-])cc1
  4.8	/

6 of the compounds above, in CSV form:
compound,Mtb bLac sens,RecA splice inh
CC1O[C@@H](OCC2O[C@@H](Oc3cc(O)c4c(c3)OC(c3ccc(O)cc3)CC4=O)[C@H](O)[C@@H](O)[C@@H]2O)[C@H](O)[C@H](O)[C@H]1O (stereo not given in full),-1.6,/
CC(C)(C)NCC(O)COc1cccc2c1CC(O)C(O)C2 (stereo not given),-7.2,/
CCc1ccccc1OC[C@@H](O)CN[C@H]1CCCc2ccccc21,36.9,/
O=C(Nc1cc(-c2ccccc2)nn1-c1ccccc1F)c1ccc([N+](=O)[O-])cc1,4.8,/
CCC(C(=O)Nc1ccccc1N1CCCC1)c1ccccc1 (stereo not given),/,3.6
COc1cc(N)c(Cl)cc1C(=O)N[C@H]1CCN(CCCOc2ccc(F)cc2)C[C@H]1OC,9.7,/

Screens as filed in PubChem BioAssay.
